VDR inhibitor: Inhibitors of the vitamin D receptor (VDR): qHTS; Vitamin D3 receptor (Homo sapiens), P11473; VDR-SRC2-3 peptide fluorescence polarization, 2 h; Potency, µM, for inactives: max response, negative = inhibition, hits mostly inhibitors; 0.93% of 400,000 active; active = well fitted inhibition curve with a large enough effect; inconclusive = small, poorly fitted or top-dose-only effect, or another doubt; inactive = no such curve, though single readings can be large or run the other way; also: series mostly up to about 120 µM
Target sequence (P11473 whole entry, looked up): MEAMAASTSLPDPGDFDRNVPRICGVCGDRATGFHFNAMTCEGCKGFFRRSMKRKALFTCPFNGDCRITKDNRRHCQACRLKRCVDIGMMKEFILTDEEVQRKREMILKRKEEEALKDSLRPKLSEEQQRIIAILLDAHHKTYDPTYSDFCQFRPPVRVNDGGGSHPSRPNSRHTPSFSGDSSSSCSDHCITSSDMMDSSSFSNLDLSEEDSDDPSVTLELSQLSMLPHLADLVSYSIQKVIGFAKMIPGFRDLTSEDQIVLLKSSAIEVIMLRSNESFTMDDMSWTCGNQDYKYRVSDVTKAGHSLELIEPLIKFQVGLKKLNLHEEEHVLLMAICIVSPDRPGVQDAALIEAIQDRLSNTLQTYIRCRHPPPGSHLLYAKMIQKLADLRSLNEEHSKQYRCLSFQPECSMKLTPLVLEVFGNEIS
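Signal is fluorescence polarization, reporting how far test compounds block the interaction of VDR with the SRC2-3 coregulator peptide after a 2 h room-temperature incubation.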
An asterisk follows results filed as active; ? = inconclusive; & = joins results of further samples. % is scaled to controls: 0 for no effect and ±100 for the full control effect; potency is read from the fitted curve at half-maximal effect. Not all compounds are listed (hit frequency here may not be typical).

A first look, four compounds:
SMILES	VDR inhibitor
CCCc1c2c(cc3c(=O)cc(C(=O)OCC)oc13)CCCC2	?
CNC(=O)c1cc(-c2ccc(Cl)cc2)n(-c2ccccc2)n1	-13.6%
Cc1ccc(CNC(=O)Nc2cn(CC(C)C)c(=O)c3ccccc23)cc1	2.7%
CCn1cc(CNC(=O)CCSc2nc(-c3ccco3)cc(C(F)(F)F)n2)cn1	13.2%

This part in full (from the top)
SMILES	VDR inhibitor
CCCc1c2c(cc3c(=O)cc(C(=O)OCC)oc13)CCCC2	?
CNC(=O)c1cc(-c2ccc(Cl)cc2)n(-c2ccccc2)n1	-13.6%
Cc1ccc(CNC(=O)Nc2cn(CC(C)C)c(=O)c3ccccc23)cc1	2.7%
CCn1cc(CNC(=O)CCSc2nc(-c3ccco3)cc(C(F)(F)F)n2)cn1	13.2%
N#C/C(=C\c1cccc([N+](=O)[O-])c1)c1ccccn1	?
CCCCn1c(N)c(N(CC(C)C)C(=O)COC(=O)c2ccccc2NCCO)c(=O)[nH]c1=O	13.5%
COc1cc(C2N(c3ccccc3)CCN2c2ccccc2)cc(OC)c1OC	7.7%
CCC1SC(CC)C(=O)N(CC(=O)NCCc2ccccc2)C1=O (centres undefined)	-11.8%
C=CCNC(=O)C1CCN(c2c([N+](=O)[O-])cc(C(F)(F)F)cc2[N+](=O)[O-])CC1	-2.8%
CC1CCCC(NC(=O)NC(=O)COC(=O)C2=NN(c3ccccc3)C(=O)CC2)C1C (centres undefined)	-8.5%
Cc1ccc(F)cc1NS(=O)(=O)c1ccc(Cl)s1	1.7%
COc1ccc(OC(=O)C(C)N2C(=O)c3ccccc3C2=O)cc1 (centres undefined)	5.3%
CN1C(=O)c2cccc3c(N)ccc(c23)C1=O	-10.8%
CC(Oc1ccc(Br)cc1)C(=O)NCC(c1cccs1)N1CCOCC1 (centres undefined)	-21.1%
O=C(CNS(=O)(=O)c1c(F)cccc1F)NC1CCCc2ccccc21 (centres undefined)	7.5%
CCC(Sc1nc(N)c(NC(=O)c2ccc(OC)c(OC)c2)c(=O)[nH]1)C(=O)OC (centres undefined)	3.3%
O=C1CN(C(=O)/C=C/c2ccc(Cl)cc2)c2ccccc2N1	7.8%
CC(=O)Nc1ccc(S(=O)(=O)Nc2nc(-c3ccc(C(C)(C)C)cc3)cs2)cc1	-23.8%
CCC1CCCCN1C(=O)Nc1cc(Cl)ccc1OC (centres undefined)	-5.9%
O=S(=O)(c1ccccc1)N1CCC(n2cnc3ccccc32)CC1	-4.8%
Nc1nonc1/C(=N/O)N1CCN(CCO)CC1	6.0%
COc1ccc(N2CCN(CCCNC(=O)C3CCN(S(=O)(=O)N4CCOCC4)CC3)CC2)cc1	7.9%
CC1O[C@@H](O[C@H](C)CC/C=C/C(=O)O)C(O)C[C@H]1O (some centres undefined)	-1.6%
O=C(OCc1ccccc1)Oc1cncc(C(=O)O)c1	-10.3%
CCCN1CCCC[C@H]1C(=O)Nc1c(C)cccc1C	-8.7%&-1.0%
COc1cccc(NC(=O)c2sc(Cl)nc2C)c1	-14.2%
O=C(COc1ccc(Cl)cc1)OCc1cc(=O)n2nc(-c3cccs3)sc2n1	5.2%
O=C(Nc1ccc(Cl)cc1)N1CCN(c2ccccc2)CC1	-8.7%
O=C(CCCCC(=O)NC1CCCC1)NC1CCCC1	4.7%
CSc1nsc(SCCN2C(=O)c3ccccc3C2=O)n1	-7.7%
COc1ccc(S(=O)(=O)N2CCOCC2)cc1C(=O)N(C)Cc1ccco1	14.9%
CCc1nc2sccc2c(=O)n1N	1.2%
COc1ccc(C(=O)Nc2nc3ccccc3[nH]2)cc1S(=O)(=O)N1CCCC1	-7.6%
CCc1ccc(NC(=O)CC2C(=O)N(c3ccc(F)cc3)C(=O)N2Cc2ccc(F)cc2)cc1 (centres undefined)	-7.5%
Cc1ccc(OCC(=O)N(C)CC(=O)Nc2ccc(F)cc2)c([N+](=O)[O-])n1	?
Cc1ccc(N(C(=O)c2ccc(S(=O)(=O)N3CCCC3)cc2)C2C=CS(=O)(=O)C2)cc1 (centres undefined)	-6.1%

Five compounds from above, sorted by formula weight, highest first:
SMILES	VDR inhibitor
CCc1ccc(NC(=O)CC2C(=O)N(c3ccc(F)cc3)C(=O)N2Cc2ccc(F)cc2)cc1 (centres undefined)	-7.5%
Cc1ccc(N(C(=O)c2ccc(S(=O)(=O)N3CCCC3)cc2)C2C=CS(=O)(=O)C2)cc1 (centres undefined)	-6.1%
O=C(COc1ccc(Cl)cc1)OCc1cc(=O)n2nc(-c3cccs3)sc2n1	5.2%
Cc1ccc(OCC(=O)N(C)CC(=O)Nc2ccc(F)cc2)c([N+](=O)[O-])n1	?
CCCN1CCCC[C@H]1C(=O)Nc1c(C)cccc1C	-8.7%&-1.0%

Additional results follow:
SMILES	VDR inhibitor
CCN1CCN(S(=O)(=O)c2ccc(Cl)c(C(=O)Nc3ccccc3N3CCOCC3)c2)CC1	?
NS(=O)(=O)c1ccc(NC(=S)NCc2ccc(F)cc2)cc1	?
Cc1ccc(C(C(=O)NC2CCCC2)N(C(=O)c2csnn2)C2CC2)cc1 (centres undefined)	7.8%
O=C(NCc1cccc(Cl)c1)c1ccc(N2CC3CC(C2)c2cccc(=O)n2C3)c(NC(=O)c2cccnc2)c1 (centres undefined)	-2.0%
O=C(c1ccc(F)cc1)n1c(=S)nc2ccccn21	-7.7%
CN1C(=O)N(S(=O)(=O)c2ccc(F)c(F)c2F)C(=O)C1(C)C	-15.1%
CN(CC(=O)NC1CCCCCCC1)S(=O)(=O)c1cnc[nH]1	0.8%
COc1cccc(NC(=O)C2CCCC2)c1	-0.1%
Cc1cccn2c(=O)c(C(=O)NCCc3ccccc3)cnc12	-0.2%
Cc1onc(C(N)=O)c1C(=O)Nc1ncc(C(F)(F)F)cc1Cl	19.4%
FC(F)(F)c1ccc(CSc2ccccn2)cc1	-1.6%
CCCCC(c1nnnn1Cc1ccco1)N1CCN(c2nc3ccccc3s2)CC1 (centres undefined)	-3.7%

In a second layout: 3 of the compounds above.
SMILES | VDR inhibitor
Cc1ccc(C(C(=O)NC2CCCC2)N(C(=O)c2csnn2)C2CC2)cc1 (centres undefined) | 7.8%
O=C(c1ccc(F)cc1)n1c(=S)nc2ccccn21 | -7.7%
CCCCC(c1nnnn1Cc1ccco1)N1CCN(c2nc3ccccc3s2)CC1 (centres undefined) | -3.7%

Other records follow.
SMILES	VDR inhibitor
Cc1ccc2c(c1)N(CCC(=O)NC1CC1)C(=O)C(C)O2 (centres undefined)	-10.6%
COc1ccc(CN2CCNC(=O)C2CC(=O)N(C)CC2CCOCC2)cc1OC (centres undefined)	-7.1%
CC(C)Nc1nc(NC(C)(C)C)nc(Oc2ccc(=O)n(-c3ccccc3)n2)n1	3.0%
COc1ccc(-c2nn(C)c(=O)[nH]2)cc1	-26.8%
CCNC(=S)N(CCc1ccc(OC)c(OC)c1)Cc1cc2cc(OC)ccc2[nH]c1=O	-14.5%
Cc1ccc(NC(=O)COc2ncnc3sccc23)cc1S(=O)(=O)N(C)C	-18.1%
CN1CC(c2ccccc2Cl)C2(COc3ccccc3C2=O)C12C(=O)Nc1ccccc12 (centres undefined)	3.3%
CC(=O)c1cccc(CN2CCN(Cc3ccc(C)cc3)C(CCO)C2)c1 (centres undefined)	14.4%
O=C(NCc1ccc(OC(F)(F)F)cc1)C1CC(c2ccccc2[N+](=O)[O-])=NO1 (centres undefined)	-12.9%
COc1ccc(-c2ccc3c(c2)C2CC3CCN2Cc2ccc(OC(F)(F)F)cc2)cc1 (centres undefined)	-11.4%
O=c1[nH]c(/C=C\c2ccc(O)c(O)c2)nc(O)c1[N+](=O)[O-]	-9.3%
NC(=N\N=Cc1ccccc1)/C(N)=N/N=Cc1ccccc1	-4.3%
CC(C)(C)c1ccc2c(c1)N(CC(=O)O)C(=O)CO2	7.1%
Cc1ccc(NC(=O)C(CC(C)C)NC(N)=O)cc1 (centres undefined)	-10.1%
N=C1c2ccccc2CN1c1ccc(S(=O)(=O)N2CCCCC2)cc1	-10.1%
CN(C)c1nc(Oc2ccc(OCCOc3ccccc3)nn2)nc(N(C)C)n1	-9.3%
COc1ccc(CCNC(=O)c2ccc(SC)cc2OC)cc1	-8.5%
CN(C)c1ccc(NC(=O)c2cccc(N3C(=O)CCC3=O)c2)cc1	-5.4%
COc1ccc(CN(C)CCc2ccccn2)cc1OC	-3.6%
CCC(C(=O)Nc1ccc([N+](=O)[O-])cn1)c1ccccc1 (centres undefined)	7.9%
CCC1CCCCN1C(=O)c1ccc2nc(Cc3ccc(OC)cc3)oc2c1 (centres undefined)	3.3%
Cc1ccc(C(=O)N2N=C(c3ccc(Br)cc3)CC2c2ccccc2O)cc1 (centres undefined)	4.5%
Cc1ccc(-n2nc(-c3ccco3)cc2C(=O)O)c(C)c1	-25.7%
Cc1onc(-c2ccccc2Cl)c1C(=O)OCC(=O)N1CCC(C)CC1	1.8%
Cc1cc(C(=O)N2CCc3ccccc3C2)n[nH]1	-13.7%
COc1ccc(NC(=O)N2CCCC(C(=O)Nc3ccccc3OC)C2)cc1 (centres undefined)	-19.0%
CS(=O)(=O)NCCCNc1ccc(C(F)(F)F)cc1[N+](=O)[O-]	3.7%
Cc1cc(C)c(CN2CCC(n3nccc3NC(=O)C3CCCC3)CC2)cc1C	-11.5%
COc1cccc(NC(=O)CSc2nc(=O)n(Cc3ccncc3)c3c2CCC3)c1	5.1%
COC(=O)C1=C(C(=O)OC)SC2(S1)C(C(=O)OC)=C(C(=O)OC)SC1=C2c2cc(C)ccc2NC1(C)C	?
CC(=O)c1ccc(N2CCN(C(=O)Cn3ncc4c3-c3ccccc3OC4)CC2)cc1	-3.3%
CCCOc1ccc(-c2nnn(CC(=O)N3CCCC(C)C3)n2)cc1 (centres undefined)	12.2%
O=C(CNC(c1ccccc1)c1ccccc1)NCc1ccccc1Cl	-0.5%
O=C(CSc1nc2ncccc2[nH]1)NCc1ccccc1	2.3%
COc1cc(C=NNc2nc3c([nH]2)c(=O)n(C)c(=O)n3C)ccc1O	7.2%
Cc1cccc(C)c1N=Cc1c(C(F)(F)F)[nH][nH]c1=O	-10.3%
CCOc1cccc2sc(Cl)nc12	9.2%
Cc1ccccc1NC(=S)NNC(=O)c1ccoc1C	-3.5%
CS(=O)(=O)N1CCC(C(=O)Nc2cc(Cl)cc(Cl)c2)CC1	-26.7%
O=C(N/N=C/c1ccc(OCc2ccccc2)cc1)c1ccc(O)cc1	3.9%
O=S(=O)(NCCc1csc(-c2ccccc2)n1)c1cccnc1	-13.8%
Cc1cc(C)n(-c2ccc(NC(=O)C3CCCCN3C(=O)c3sccc3C)cc2)n1 (centres undefined)	-10.2%
CC(C)(CO)N=C1NS(=O)(=O)c2cc([N+](=O)[O-])ccc21	-0.9%
O=C(O)CCC1(CCC(=O)O)c2ccccc2-c2ccccc21	1.6%
c1ccc(Nc2ccnc(Nc3ccccc3)n2)cc1	-3.7%
CCn1c(Cc2ccc(OC)cc2)nnc1SCC(=O)NC1CCCCC1	-0.9%
Nc1ncc(Br)cc1S(=O)(=O)NCCC(=O)NCCc1ccc(Cl)cc1	-9.5%
COc1ccc(Cc2nnc(NS(=O)(=O)c3ccc(Cl)cc3)s2)cc1OC	1.2%
CCOc1ccc(CCNC(=O)CCn2ccc3cc(S(=O)(=O)N4CCCC4)ccc32)cc1	-12.3%
CCN(CC)c1ccc(S(=O)(=O)N2CCOCC2)cc1NC(=O)COC(=O)c1ccco1	-8.6%
Cn1cc(CN2CCN(CC(C)(C)C)C(CCO)C2)c2ccccc21 (centres undefined)	1.9%
CC(=O)c1cccc(NC(=O)NNC(=O)CCC(=O)Nc2ccc(C)c(C)c2)c1	-11.7%
CN1CCN(c2ncc3nc(-c4cn(C)c5ccccc45)c(=O)n(CCC#N)c3n2)CC1	-23.4%
CC(C)N1CCC(=NNC(=O)c2ccc(Br)o2)CC1	-7.2%
O=C(Nc1c(F)cccc1F)C(c1ccccc1)c1ccccc1	-10.7%
O=C(CN1C(=O)CCC1=O)NNc1ccc2ccccc2c1	-12.8%
CCCn1nc(C(=O)NNC(=O)c2ccc(OC(F)F)cc2)c2ccccc2c1=O	14.4%
Cc1ccc(NC(=O)CNCCCN2CCOCC2)cc1S(=O)(=O)N1CCCCC1	3.4%
Cc1nn(C(C)(C)C)c(N)c1-c1ccccc1	-9.0%
CCOc1ccc(/C(O)=C2/C(=O)C(=O)N(CCOCCO)C2c2ccc(F)cc2)cc1 (centres undefined)	?
The list goes on.
SMILES	VDR inhibitor
N#Cc1c(NC(=O)Cn2cnc3ccccc3c2=O)oc(-c2ccccc2)c1-c1ccccc1	-2.9%
COc1cccc(-c2ccc3c(N)c(C(=O)c4ccc(Br)cc4)sc3n2)c1	0.9%
CC(=O)c1c(N(C)C)ccnc1C(F)(F)F	-7.6%
CSc1ncccc1C(=O)N1CCN(S(=O)(=O)c2ccc(C)cc2)CC1	10.1%
CCc1ccc(C(=O)c2cn(Cc3ccccc3)c3cc(OC)c(OC)cc3c2=O)cc1	12.5%
Cc1ccc(C)c(N2CCN(S(=O)(=O)c3cc(C(=O)Nc4cc(Cl)cc(Cl)c4)ccc3F)CC2)c1	3.6%
Cc1ccc(S(=O)(=O)Nc2cccc(C(=O)NCCCN3CCCC3=O)c2)cc1F	-0.6%
COc1cccc(CN(C)C(=O)c2cc(S(=O)(=O)N3CCN(c4ccccc4)CC3)ccc2Cl)c1	9.0%
C=CCOc1ccc(/C=C/C(=O)OCC(=O)N2CCN(C(C)=O)CC2)cc1	8.7%
COc1ccc(NC(=O)c2ccc3oc(=O)c(S(=O)(=O)c4ccc(F)cc4)cc3c2)cc1OC	-3.9%
O=[N+]([O-])c1cc2c(cc1[N+](=O)[O-])OCCOCCOCCOCCO2	-4.3%
CC(=O)c1sc(NC(=O)c2ccc(Cn3cc(Br)cn3)o2)nc1C	-0.6%
CCOC(=O)C1CCN(CC(=O)Nc2c(C(=O)OC)[nH]c3cccc(C)c23)CC1	6.6%
COc1cccc(NC(=O)CN(C)C(=O)CCCc2nc3ccccc3s2)c1	9.1%
Cc1cc(C(=O)Nc2nc3ccc(Cl)cc3s2)nn1C	5.8%
Cc1ccccc1NC(=O)CSc1nn2c(=O)c(C)nnc2s1	-26.2%
CCOc1cccc(NC(=O)CSc2ncc(-c3ccccc3)[nH]2)c1	2.3%
